Screens: PubChem BioAssay, several laboratories
T cruzi repl: T. cruzi replication inhibition. 300,000 tested, 1.4% active. AID 1885. T. cruzi beta-gal in NIH3T3, luminescence, 90 h. inhibition, % (no concentration beside the values);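 active = mean inhibition across valid replicates above about 55%, limit read from the data; inconclusive = mean below that limit but half or more replicates reach it; inactive = mean below it, under half of replicates reach it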;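 also: signal also drops with host cell toxicity which is not excluded here; 0% = plate median of DMSO wells and 100% = zero luminescence signal; higher percent means less beta-gal luminescence so fewer parasites; stock transfer was 50 nL into about 50 µL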
Bfl-1 A1 inh: inhibitors of the anti-apoptotic protein A1, read as caspase activation; MEF A1-2A-BIM cells, Caspase-Glo 3/7 luminescence, 3 h; percent of clofoctol response, vehicle zero; caspase activation, % (concentration not given with the values); 330,000 tested, 0.066% active; AID 2462;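 active = over half of replicate activation scores above 10%, or exactly half above 10 with the replicate mean above 10; inconclusive = replicate mean below 10 yet half the replicates above 10; inactive = over half of replicates below 10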;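 also: wells of about 30 µL received 50 nL stock; many hits fall short of the cut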
ALR inh: inhibitors of human sulfhydryl oxidase ALR; 290,000 tested, 3.8% active; P55789; inhibition, % (test concentration not listed); purified ALR, DTT oxidation, H2O2 HRP-luminol luminescence;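 active = mean and each replicate at 75% or more; inconclusive = only one of the two met; inactive = neither met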;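 also: stock transfer was 7.5 nL into about 7.5 µL; 0% = neutral wells and 100% = wells with inactivated enzyme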
Target sequence (P55789 whole entry, looked up): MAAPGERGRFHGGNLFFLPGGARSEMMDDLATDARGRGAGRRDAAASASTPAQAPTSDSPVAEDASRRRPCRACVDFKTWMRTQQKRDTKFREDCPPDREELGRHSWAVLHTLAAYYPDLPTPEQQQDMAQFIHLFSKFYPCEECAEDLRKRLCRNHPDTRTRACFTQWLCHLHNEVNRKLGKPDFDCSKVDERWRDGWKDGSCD
LANA-H2A inh: blocks KSHV LANA binding to histone H2A/H2B; cell-free LANA-H2A/H2B peptide, fluorescence polarization; Q9QR71; inhibition, % (no concentration beside the values); 320,000 tested, 0.6% active; in the data active = inhibition mostly above about 10%, no sharp cut-off; inactive = mostly below about 6.7%;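 also: stock transfer was 7.5 nL into about 10 µL; 0% = median of vehicle wells and 100% = median of positive control wells; one replicate is shown; the record names a cut of 25% in any replicate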
Beta2AR agonist: agonists of human beta-2 adrenergic receptor inducing internalization; P07550; Am2.2-beta2AR cells, FAP receptor internalization, flow cytometry; reference of the scale not given here; response, % (test concentration not listed); 340,000 tested, 0.43% active; AID 504454;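 active = response above a set limit, near 3 SD of response in nonfluorescent compounds, cut at about 42% in these data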;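 also: stock transfer was 100 nL into about 11 µL; a reference agonist was the positive control; negative values mostly stem from fluorescent compounds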
Target sequence (P07550 whole entry, looked up): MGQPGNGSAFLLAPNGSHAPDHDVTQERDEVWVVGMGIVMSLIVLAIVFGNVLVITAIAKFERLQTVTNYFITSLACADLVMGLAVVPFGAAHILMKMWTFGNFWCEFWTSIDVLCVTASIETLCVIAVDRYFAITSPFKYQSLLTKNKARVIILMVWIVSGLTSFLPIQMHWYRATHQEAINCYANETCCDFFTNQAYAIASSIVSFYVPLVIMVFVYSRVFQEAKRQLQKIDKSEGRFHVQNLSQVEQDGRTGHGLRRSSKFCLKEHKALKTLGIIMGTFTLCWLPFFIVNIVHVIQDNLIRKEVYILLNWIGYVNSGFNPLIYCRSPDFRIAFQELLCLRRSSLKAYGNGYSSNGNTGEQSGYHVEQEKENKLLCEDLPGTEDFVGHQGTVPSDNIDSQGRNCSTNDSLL
Ecoli rRNA inh: inhibitors of bacterial rRNA selective over humanized ribosomes; GFP signal change (wild-type ribosome), % (test concentration not listed); AID 720706; E. coli WT GFP vs humanized-ribosome RFP mutants, fluorescence, 24 h; hits give low values; DMSO median 0, no signal -100; 350,000 tested, 1.6% active;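 active = significant combined selectivity score with lowered wild-type GFP, culture density cut under 30%, mutant RFP and density less affected; inactive = any of these conditions unmet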; also: one replicate is shown; some compounds called inactive have numbers as strong as hits
Calb FLC: affects C. albicans growth with fluconazole. C. albicans CaCi-2 (fluconazole-resistant clinical isolate) + fluconazole, Alamar Blue growth, 48 h. AID 1979. 300,000 tested, 0.57% active. growth inhibition, % (test concentration not listed);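 active = most replicates above 75%; inconclusive = exactly half above 75%; inactive = most below 75%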;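 also: all wells also contain fluconazole at 8 µg/ml as a sub-toxic cotreatment; 0% = median of DMSO wells and 100% = median of geldanamycin control wells; wells of about 8 µL received 7.5 nL stock; the first replicate is given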
Beta cell apopt: beta cell apoptosis inhibition. INS-1E cytokine-induced death, ATP luminescence, 48 h; percent of positive-control rescue, neutral wells zero. protection from apoptosis, % (concentration not given with the values). 300,000 tested, 0.8% active. AID 435005;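 active = all replicates at 75% or more, or half of them and the mean; inconclusive = half reach 75% but not the mean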;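 also: 0% = cytokine-treated negative control wells and 100% = positive control rescue; higher means more ATP so stronger rescue from cytokine killing; wells of about 40 µL received 100 nL stock; the first replicate is given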
Ecoli rRNA inh OD600: second read-out of Ecoli rRNA inh, no call of its own (marks repeat the call); OD600 change, %; measured here: OD600 growth;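 optical density of the mix in the first replicate; 0 = DMSO median and -100 = no signal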
Ecoli rRNA inh RFP: recorded beside Ecoli rRNA inh, whose call it bears; RFP signal change, %; measured here: RFP humanized mutant strains;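 first replicate; 0 = DMSO median and -100 = no signal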
* = called active by the depositor; ? = inconclusive; . = not tested or not shown. The list is partial; rates above refer to the full screens.

SMILES	T cruzi repl	Bfl-1 A1 inh	ALR inh	LANA-H2A inh	Beta2AR agonist	Ecoli rRNA inh	Ecoli rRNA inh OD600	Ecoli rRNA inh RFP	Calb FLC	Beta cell apopt
CCNC(=S)NNC(=O)c1cc(CC(C)C)nc2ccccc12	-11	1.0	.	0.0	3	.	.	.	18	11
Cc1cccc(NC(=O)C2CCN(S(=O)(=O)c3ccc4c(c3)NC(=O)CO4)CC2)c1	8	0.1	-4	-0.8	-3	-13	-9	2.4	-2	1
COc1ccc2occ(C(=O)c3ccc(N)cc3)c2c1	-16	-8.7	58	3.1	11	-18	-10	-1.6	-9	-7
COC(=O)c1cccc(Nc2nc(-c3ccncc3)nc3ccccc23)c1	26	-0.3	5	0.7	19	6	6	-1.3	0	9
Cc1ccc(C(=O)NCC(=O)NCc2cc(=O)n(C)c(=O)n2C)cc1	-2	0.1	-1	1.3	5	7	11	-1.6	-7	-3
COc1ccc(NC(=O)COC(=O)Cc2c(F)cccc2Cl)cc1OC	8	0.1	-8	-0.6	-9	2	-10	1.1	12	-2
COc1cc(OC)cc(C(=O)N[C@H](C(=O)NC2=NCCS2)C(C)C)c1	.	-0.4	40	2.4	0	.	.	.	.	-2
COc1ccc(NC(=O)N(Cc2cc3cc(OC)ccc3[nH]c2=O)CC2CCCO2)cc1 (stereo unspecified)	10	-0.4	-14	2.8	-1	.	.	.	-3	5
CC(=O)Nc1ccc(S(=O)(=O)Nc2ccc(S(=O)(=O)N3CCCC3)cc2)cc1	11	-0.6	-7	2.7	2	2	-4	-1.3	3	-1
CN(C)c1cccc(C(=O)NNC(=O)/C=C/c2cccs2)c1	.	0.3	-6	2.3	-10	7	12	0.2	.	-1
COc1ccc(NC(=O)c2sc(N)nc2-c2ccccc2)cc1	0	?	.	2.1	0	-12	-18	2.2	19	-2
O=[N+]([O-])c1ccc(SCc2c(F)cccc2Cl)nc1	10	2.8	-5	1.6	8	3	3	-6.5	-15	4
NCCCCCc1nnc(SC/C=C/c2ccccc2)o1	-11	-0.2	-15	6.0	2	.	.	.	-4	7
O=C(COc1cccc(F)c1)Oc1ccc(C(=O)c2ccccc2)cc1	-19	0.8	-1	-4.9	-3	-10	-7	-9.1	-13	-5
Cc1ccc(Cl)cc1N(CC(=O)N1CCCCCC1)S(C)(=O)=O	-4	1.1	-14	-2.0	5	.	.	.	-20	-1
O=C(Nc1ccc(Cl)cc1)N1CCN(c2ccc3nnc(-c4ccc(F)cc4)n3n2)CC1	52	0.6	-5	-0.5	-1	.	.	.	5	8
COc1cc(C2c3c(-c4cc(C)cc(C)c4O)n[nH]c3C(=O)N2CCCO)cc(OC)c1OC (stereo unspecified)	13	-0.1	9	-0.8	-11	.	.	.	10	7
CC(=O)Nc1cccc(NC(=O)CSc2nccn2Cc2ccco2)c1	-12	0.2	99*	6.1	5	0	6	-1.6	0	6
CCOc1ccc(C2C(C#N)=C(N)Oc3cc(O)ccc32)cc1OCC (stereo unspecified)	-17	0.8	-3	-0.3	21	-27	-39	-3.7	11	7
Cc1ccc(Cn2ncc(Cl)c(Cl)c2=O)cc1	-6	-0.9	15	-3.0	20	-10	-5	5.5	-12	-14
COc1ccc(Cc2nc3ccc(C(=O)NCCc4cccc(C)n4)cc3o2)cc1	-9	-0.5	-25	-4.6	-10	-17	-25	-4.4	1	-6
Nn1c(SCC(=O)Nc2ccc3c(c2)OCO3)nnc1-c1ccc(Cl)cc1	7	-0.4	-5	6.9	0	.	.	.	7	-1
O=C(O)c1csc(-c2cccc(Cl)c2)n1	-7	0.0	-2	-1.9	4	-6	5	2.6	-11	-10
COc1ccccc1NC(=O)CSc1nnc(Cc2cc(=O)[nH]c(=O)[nH]2)n1-c1ccccc1	-6	-0.6	.	-1.9	-2	.	.	.	-12	-26
CCCCNC(=O)Nc1ccccc1C(=O)Nc1ccc(OC)cc1	3	0.2	-18	7.3	17	.	.	.	-10	3

The final two compounds of the section above open the next one:
SMILES	T cruzi repl	Bfl-1 A1 inh	ALR inh	LANA-H2A inh	Beta2AR agonist	Ecoli rRNA inh	Ecoli rRNA inh OD600	Ecoli rRNA inh RFP	Calb FLC	Beta cell apopt
COc1ccccc1NC(=O)CSc1nnc(Cc2cc(=O)[nH]c(=O)[nH]2)n1-c1ccccc1	-6	-0.6	.	-1.9	-2	.	.	.	-12	-26
CCCCNC(=O)Nc1ccccc1C(=O)Nc1ccc(OC)cc1	3	0.2	-18	7.3	17	.	.	.	-10	3
CCOc1ccccc1NC(=O)c1ccc2ccccc2c1	-3	0.9	-8	3.3	-3	-25*	-12*	-3.3*	0	0
O=C(CN1C(=O)c2cccc3cccc1c23)N1CCN(c2cccc(Cl)c2)CC1	-6	-0.5	-4	1.6	-6	.	.	.	-3	3
O=C(CN1CCOCC1)NCc1ccccc1Cl	-13	1.0	.	8.2	4	5	10	-1.1	4	-4
O=C(C1CC1)N1N=C(c2ccc(F)cc2)CC1(O)C(F)(F)F (stereo unspecified)	-9	0.1	-8	-3.8	-1	8	12	-3.0	1	-8
Cn1c(Cn2c(=O)sc3ccccc32)nnc1SCC(=O)NCC1CCCO1 (stereo unspecified)	-4	-0.7	-10	1.9	5	10	10	0.6	1	0
COC(=O)c1ccc(C(=O)OC)c(NC(=O)COC(=O)C2CCCCC2)c1	1	-0.9	-8	-2.1	13	-1	2	1.5	-11	-7
COc1ccc(OC)c(C(=O)N2CCCC(Nc3ccc(F)cc3)C2)c1 (stereo unspecified)	-3	-0.1	94*	-1.7	-4	-1	-1	-0.2	-3	.
O=C(O)c1ccc(-c2nc(-c3cccc(C(F)(F)F)c3)cs2)cc1	7	.	.	.	-1	-8	-4	-0.9	?	.
O=C1N=C(N2CCOCC2)S/C1=C/c1cc2c(cc1[N+](=O)[O-])OCO2	-10	0.8	-17	3.9	6	-3	13	-3.0	-3	-16
O=C(CN1CCN(C(=O)c2ccco2)CC1)Nc1ccc(Cl)c(C(F)(F)F)c1	.	1.6	12	-1.7	0	.	.	.	.	-1
CCOP(=O)(c1ccc(N(C)C)cc1)C(O)c1ccc(Cl)cc1 (stereo unspecified)	-12	0.5	-4	-6.8	4	.	.	.	56	-8
Clc1ccc2oc(-c3cccnc3)nc2c1	-1	-7.9	.	0.6	-4	.	.	.	2	7
CCCc1cc(=O)[nH]c(SCC(=O)NN(c2ccccc2)c2ccccc2)n1	6	-0.5	3	1.3	7	12	3	0.4	31	0
COc1ccc(C2=NN3C(C2)c2ccccc2OC3c2cccs2)cc1 (stereo unspecified)	-11	-5.0	.	-4.2	8	-36	-53	-18	-13	-2
CN(C)c1ncnc(N(C)C)c1[N+](=O)[O-]	-8	0.1	-13	2.4	7	19	2	4.6	0	0
COc1ccc(-c2ccc(CCC(=O)O)n2NC(=O)c2ccc(C(C)(C)C)cc2)cc1	-6	-0.1	98*	0.6	3	-9	-19	-2.8	26	.
Cc1ccc(S(=O)(=O)Nc2cc(C(F)(F)F)ccc2N2CCOCC2)cc1C	17	0.7	-17	3.7	5	13	6	-0.5	0	15
Cc1nc2ccccc2n1CC(=O)OCC(=O)NCCc1ccccc1	-14	0.1	6	0.9	7	.	.	.	-1	1
CC1Cc2ccccc2N1C(=O)COC(=O)CCc1nc2ccccc2c(=O)[nH]1 (stereo unspecified)	-8	0.9	-3	-4.2	9	-2	-1	0.0	9	.
Cc1cc(=O)[nH]c(N2CCN(Cc3ccccc3)CC2)n1	-7	-0.1	-4	-4.7	5	.	.	.	-8	-8
CCN(CC(=O)Nc1ccccc1C(F)(F)F)C(=O)c1ccc2c(=O)n3c(nc2c1)CCC3	.	2.1	-1	-0.4	-13	5	10	-2.0	.	-3
COc1cc(/C=N/NC(=O)Cc2ccccc2)cc([N+](=O)[O-])c1O	-4	0.6	6	1.0	1	-5	-19	-2.1	-7	4
COc1ccc(-c2oc3ccc(N4CCOCC4)cc3c2C#Cc2ccc(N)cc2)cc1	-7	0.6	-3	3.9	30	.	.	.	1	-2
CCOC(=O)C1=C(CSc2nc(C)ccc2C#N)OC(N)=C(C#N)C1c1cccc(OC)c1OC (stereo unspecified)	0	1.5	-12	-0.5	-5	.	.	.	-13	-8
CCC(OC(=O)CC1Sc2ccccc2NC1=O)C(=O)NCC1CCCO1 (stereo unspecified)	-18	0.2	7	-3.8	13	7	4	-4.0	1	.
The list goes on:
SMILES	T cruzi repl	Bfl-1 A1 inh	ALR inh	LANA-H2A inh	Beta2AR agonist	Ecoli rRNA inh	Ecoli rRNA inh OD600	Ecoli rRNA inh RFP	Calb FLC	Beta cell apopt
CCN(CC)CCCOc1ccc(Cl)c(Cl)c1	52	-0.2	3	0.9	9	.	.	.	-22	2
COc1ccc(C2C3(C#N)C(N)=NC(OC)(OC)C23C#N)cc1 (stereo unspecified)	-4	0.1	33	-1.0	2	10	3	3.2	-48	-1
CC(C)CCN(C(=O)COc1ccc(C#N)cc1)c1c(N)n(Cc2ccccc2)c(=O)[nH]c1=O	-1	0.6	-2	-4.2	.	.	.	.	5	-5
O=C(NCc1ccccc1)NC1CCCCC1	-5	-0.1	.	9.4	3	0	1	-5.9	-3	1
O=C1CSC(c2cccc([N+](=O)[O-])c2)N1CCc1ccccc1 (stereo unspecified)	6	?	44	1.1	-8	2	0	5.7	15	1
COc1ccc(N2CCN(C(=O)NCc3ccc(C)cc3)CC2)cc1	-9	-0.5	2	-9.2	3	2	5	-1.9	1	2
Cc1onc(-c2ccccc2)c1C(=O)NC(=S)NNC(=O)c1ccccc1O	-14	-0.4	30	3.7	0	-25	-52	-13	23	85*
CCOC(=O)CSc1nc(N2CCOCC2)c2c(c1C#N)CC(C)(C)OC2	3	-0.5	0	4.6	5	-4	-3	0.4	0	5
c1ccc2c(-c3csc(-c4ccncc4)n3)c[nH]c2c1	51	-1.1	99*	-3.8	18	-27*	-12*	-4.9*	-7	-12
Cc1ccc(/C=N/NC(=O)CN2CCN(Cc3ccccc3Cl)CC2)o1	-7	-0.1	-7	-2.0	4	1	4	3.5	-3	-5
COc1ccc(CCC(=O)O)c(O)c1	-13	-0.9	10	3.4	4	.	.	.	-4	0

Sorted by SMILES length (low to high): some entries from above.
SMILES	T cruzi repl	Bfl-1 A1 inh	ALR inh	LANA-H2A inh	Beta2AR agonist	Ecoli rRNA inh	Ecoli rRNA inh OD600	Ecoli rRNA inh RFP	Calb FLC	Beta cell apopt
Cc1ccc(Cn2ncc(Cl)c(Cl)c2=O)cc1	-6	-0.9	15	-3.0	20	-10	-5	5.5	-12	-14
Cc1ccc(S(=O)(=O)Nc2cc(C(F)(F)F)ccc2N2CCOCC2)cc1C	17	0.7	-17	3.7	5	13	6	-0.5	0	15
CC(=O)Nc1ccc(S(=O)(=O)Nc2ccc(S(=O)(=O)N3CCCC3)cc2)cc1	11	-0.6	-7	2.7	2	2	-4	-1.3	3	-1
